Screening results deposited in PubChem by National Center for Advancing Translational Sciences (NCATS).
TSHR agonist: agonists of human thyroid stimulating hormone receptor | Potency, µM (titrated, usually from 57.1 µM), for the others: at the highest dose activation, usual class: activators | HEK293-CNG-TSHR cells (CNG channel as cAMP sensor), membrane potential dye, cAMP | hit rate 0.48% among 73,000 | AID 926; active = well fitted activation curve of enough size with the parental cells flat; inconclusive = any curve in the parental cells; inactive = parental cells flat and receptor cells flat or falling; further: potency means the concentration at half of the fitted maximal effect; % of control where 0% means no effect; weak receptor curves with flat parental cells got no call and are not listed
Target sequence (P16473 whole entry, looked up): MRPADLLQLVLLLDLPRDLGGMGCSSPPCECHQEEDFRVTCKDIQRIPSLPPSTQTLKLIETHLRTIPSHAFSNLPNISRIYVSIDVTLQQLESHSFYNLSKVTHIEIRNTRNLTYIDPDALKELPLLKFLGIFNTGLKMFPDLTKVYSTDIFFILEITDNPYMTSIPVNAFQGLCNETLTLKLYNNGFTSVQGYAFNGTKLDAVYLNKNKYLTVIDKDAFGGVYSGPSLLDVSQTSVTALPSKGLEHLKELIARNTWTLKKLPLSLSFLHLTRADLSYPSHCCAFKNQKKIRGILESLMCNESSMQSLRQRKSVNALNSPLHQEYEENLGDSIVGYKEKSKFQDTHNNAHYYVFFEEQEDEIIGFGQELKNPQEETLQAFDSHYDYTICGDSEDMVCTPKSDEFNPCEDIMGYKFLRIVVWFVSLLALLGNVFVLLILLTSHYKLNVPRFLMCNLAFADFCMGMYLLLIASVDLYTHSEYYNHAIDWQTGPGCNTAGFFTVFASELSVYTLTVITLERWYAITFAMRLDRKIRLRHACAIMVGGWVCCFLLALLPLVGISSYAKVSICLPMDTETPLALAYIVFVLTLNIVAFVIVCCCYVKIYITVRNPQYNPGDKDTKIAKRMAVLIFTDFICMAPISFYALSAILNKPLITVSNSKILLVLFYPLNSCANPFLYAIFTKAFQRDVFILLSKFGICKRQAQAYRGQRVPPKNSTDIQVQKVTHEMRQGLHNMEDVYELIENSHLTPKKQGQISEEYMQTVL
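HEK 293 cells stably expressing TSHR and a cAMP-gated CNG channel; parental CNG-only cells as counterscreen. Cells preloaded 60 min with membrane potential dye plus 100 uM RO 20-1724, then compound 30 min; fluorescence read at 590 nm.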
AID923: qHTS Assay for Allosteric/Competitive Inhibitors of Caspase-1: Spectroscopic Profiling in AFC Spectral Region; Potency, µM (doses to about 57.5 µM), inactives show at the highest dose fluorescence increase, actives largely listed as activators; compound fluorescence, AFC spectral region (405/520 nm); almost no hit is shown here; hit rate 1.1% among 75,000; active means well fitted activation curve with a large enough effect; inconclusive means small, poorly fitted or top-dose-only effect;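 further: potency means the concentration at half of the fitted maximal effect; 0% is about no effect; scaled to a free AFC standard on each plate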
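Compound autofluorescence profiled at 405 nm ex/520 nm em during kinetic caspase 1 run (50 nM enzyme, 5 uM Ac-WEHD-AFC, HEPES pH 7.5, 10 mM DTT). Titration up to 57 uM; baseline from regression intercept, normalized to AFC standard curve.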
A488 autofl: compound fluoresces in the A488 spectral region. compound autofluorescence, A488 spectral region, dye equivalency; active compounds read high. AID 591. hit rate 0.1% among 59,000. max dye equivalency, M; active = above 10 nM dye equivalent; inconclusive = 1 to 10 nM; inactive = 1 nM or less; about half of its hits are not listed in these tables;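 further: highest value over a series up to 38 µM; compound alone in buffer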
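Read-out: relative fluorescence at 480/540 nm, expressed as Alexa 488 dye-equivalent concentration from a six-point A488 standard included per plate. Conditions: 100 mM Tris, pH 8.0; 15 min incubation, room temperature.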
Resorufin autofl: compounds fluorescent in resorufin spectral region; Compound fluorescence, resorufin region 547/598 nm, buffer; active compounds read high; max dye-equivalent concentration, M; hit rate 0.04% among 59,000; active = above 10 nM dye equivalent; inconclusive = 1 to 10 nM; inactive = 1 nM or less; a few of its hits are not listed in these tables; further: highest value over a series up to 38 µM
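Compounds in 100 mM Tris, pH 8.0, incubated 15 min at room temperature, then fluorescence read at 547 nm excitation/598 nm emission. Signal converted to dye-equivalent concentration via an on-plate six-point resorufin standard curve, per compound concentration.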
A647 fluor: compound fluoresces in the A647 spectral region | max dye-equivalent concentration, M | Compound fluorescence, A647 channel (570/671 nm), Tris buffer | 59,000 tested, under 10 active; active means above 1 µM dye equivalent; inconclusive means 0.1 to 1 µM; inactive means 0.1 µM or less;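 further: values scaled relative to a standard on each plate; highest value over a series up to 38 µM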
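Compounds pinned into 100 mM Tris pH 8.0, 15 min at room temperature, then read with 570 nm excitation/671 nm emission filters. Fluorescence normalized to an on-plate six-point Alexa 647 standard curve, giving dye-equivalent concentration per compound concentration.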
Active calls of the source: *; i = inactive; ? = inconclusive; . = no result given; [ ] = remark or other dose. Not all compounds are listed; the hit share may differ from the screen's.

SMILES | TSHR agonist | AID923 | A488 autofl | Resorufin autofl | A647 fluor
c1ccc(-c2nnc(N3CCN(c4ccccn4)CC3)c3ccccc23)cc1 | 25% | -0.9% | i | i | 1e-09
COC(=O)c1ccccc1NC(=O)CN(CCc1ccccc1)S(C)(=O)=O | . | -2.3% | i | i | 6.5e-09
C/C(CCN1CCCc2nc(C)c(C)cc21)=N\OC[C@@H](C)[C@H](OCc1ccccc1)C(C)C | 5%[11.4 µM] | 0.8%[11.5 µM] | . | . | .
CCn1c(CSc2nnc(-c3ccc4c(c3)OCO4)o2)nc2cc(S(=O)(=O)N(C)C)ccc21 | 14% | 8.7% | i | i | 2.8e-09
CCCNc1nc2c(c(=O)[nH]c(=O)n2C)n1Cc1cccc(Br)c1 | -13% | -3.7% | i | i | 2.6e-08
CC(C)CN1CCC2(CC1)CCN(C(=O)c1cc(C(F)(F)F)cc(C(F)(F)F)c1)CC2 | ? | 1.5% | i | i | 1e-09
CO[C@@H]1COC(=O)[C@H]2CCCN2C(=O)[C@@H](C)COC(=O)C/C=C\[C@H]1C | -2%[11.4 µM] | -1.4%[11.5 µM] | . | . | .
CCOC(=O)C1CCN(C(=O)Nc2ccc3snnc3c2)CC1 | 7% | 0.1% | i | i | 1e-09
CCOC(=O)N1CCN(c2cc(NCCC(=O)O)c3c4c(onc24)-c2ccccc2C3=O)CC1 | -18% | 6.4% | ? | i | 3.6e-08
Cc1ccccc1OCCCN1C(=O)C(=O)c2cccc(C)c21 | ? | 1.5% | . | . | .
CC(C)c1nnc(NC(=O)c2c(O)c3cccc4c3n(c2=O)CC4)s1 | ? | 0.1% | i | i | 1e-09
Cc1nc2cc(NCc3nc4ccccc4n3Cc3ccccc3)ccc2n1C | ? | -2.3% | . | . | .
O=C(Nc1ccc(Cl)c(Cl)c1)N1CCSC1c1ccco1 (stereo not drawn) | ? | -3.1% | i | i | 6.6e-09
O=C(NCc1ccc(F)cc1)C1CCCN1C(=O)NCc1ccccc1 (stereo not drawn) | 2% | 0.9% | i | i | 1e-09
CCOc1ccccc1C1N(c2ccc(OC)cc2)C(=O)C2CCCN21 (stereo not drawn) | 2% | 3.5% | . | . | .
CCCCc1c(O)nc(SCC(=O)NCCc2ccc(OC)c(OC)c2)[nH]c1=O | 1% | 1.4% | i | i | 5e-08
Cc1ccc2cc3cc(C(=O)NCCC(C)C)oc3nc2c1 | 10% | -0.6% | i | i | 5.2e-09
COc1cc(-c2nnc(SCc3cc(=O)oc4cc(C)ccc34)o2)cc(OC)c1OC | 19% | 0.9% | i | i | 4.1e-09
COc1ccc(-c2nc(N3CCOCC3)nc3n[nH]c(N)c23)cc1 | -4% | 0.5% | i | i | 3.1e-09
Cn1c(SCc2nnc(-c3ccc(F)cc3)o2)nnc1C1COc2ccccc2O1 (stereo not drawn) | 11% | -0.2% | i | i | 4.5e-08
NS(=O)(=O)c1ccc(Nc2nc(-c3ccc(O)cc3)cs2)cc1 | -14% | 1.3% | i | i | 2.2e-08
CCOc1ccccc1NC(=O)C1CCCN(S(=O)(=O)c2ccc(OC)c(C)c2)C1 (stereo not drawn) | 16% | -1.0% | i | i | 7.4e-08
CCOC(=O)C1C(=O)NC(SCC(=O)Nc2nccs2)=C(C#N)C1c1ccccc1OCC (stereo not drawn) | 5%[11.4 µM] | 1.4% | i | i | 2.7e-08
CCOc1ccc(C)cc1S(=O)(=O)N1CCCCC1 | ? | -0.7% | i | i | 1e-09
Cc1cccc(-c2nsc(SCC(=O)Nc3cc(C)on3)n2)c1 | -1% | 1.6% | i | i | 1.9e-08

(list continues)
SMILES | TSHR agonist | AID923 | A488 autofl | Resorufin autofl | A647 fluor
CCCCCn1c(Br)nc2c1c(=O)n(CC(N)=O)c(=O)n2C | 1% | -0.5% | i | i | 1.7e-08
COc1ccc(OC)c(CCNC(=O)CS(=O)(=O)Cc2nc(-c3ccc(C)cc3)oc2C)c1 | ? | -0.4% | i | i | 1.6e-08
CCNC(=O)CC(=O)Nc1ccccc1C(=O)O | -6% | -0.8% | i | i | 8e-09
COC(=O)c1cc(Br)c(=O)n(Cc2ccc3c(c2)OCO3)c1 | . | . | i | i | 2.7e-08
O=C(CN(C(=O)CCNC(=O)c1ccco1)c1ccccc1)NC1CCCC1 | -3% | -4.6% | i | i | 1e-09
COc1ccc(Cl)cc1NC(=O)CSc1nnc(Cn2c(=O)sc3ccccc32)n1C | 4% | -2.6% | . | . | .
C(=C\c1ccccc1)/C=N/n1cnnc1 | 12% | -2.2% | . | . | .
COc1nc(NS(=O)(=O)c2ccc(C)cc2)nc(C)c1Cl | . | . | i | i | 9.2e-08
COc1cc(-n2c(=O)c3ccccc3n(Cc3cccnc3)c2=O)cc(OC)c1OC | -1% | 0.6% | i | i | 5.6e-09
COc1ccc(Cl)c(Cn2c(NCC(C)O)nc3c2c(=O)n(C)c(=O)n3C)c1 (stereo not drawn) | -4% | 0.3% | i | i | 1.1e-09
CCOCCn1c(CN2CCOCC2)nc2c1c(=O)[nH]c(=O)n2C | -7% | -7.0% | . | . | .
O=C(Nc1cccc2nsnc12)C1CC(=O)N(c2ccccc2)C1 (stereo not drawn) | 15% | -0.3% | i | i | 2.3e-08
CCCS(=O)(=O)N1CCN(c2ccccc2F)CC1 | 2% | -2.0% | i | i | 1e-09
CCCc1nnc(NC(=O)Cn2c(=O)sc3ccccc32)s1 | 5% | 3.7% | i | i | 1.2e-08
COCCN(CCOC)S(=O)(=O)c1ccc(C(=O)Nc2nnc(C)o2)cc1 | -3% | 0.2% | i | i | 1e-09
CC(C)(C)C(=O)OCCn1c(=O)c2cc3c(=O)n(CCOC(=O)C(C)(C)C)c(=O)c3cc2c1=O | 17% | 1.1% | i | i | 1.1e-09
C[C@@H](C(=O)Nc1ccc2ccccc2c1)[C@@H]1C[C@@]1(C)[C@@H](NS(=O)(=O)c1ccc2ccccc2c1)c1ccccc1 | 0% | -1.8% | . | . | .
CCCCCCN1CC(O)=C(c2nc3ccccc3[nH]2)C1=N | -2% | -1.5% | i | i | 1.6e-09
Cc1ccc2[nH]c(=O)c(CN(Cc3ccco3)C(=O)c3ccncc3)cc2c1 | 5% | -0.5% | i | i | 1e-09
O=C(C1CC1)N1CCc2cc(Br)cc(S(=O)(=O)NCc3ccc4c(c3)OCO4)c21 | ? | 1.0% | i | i | 1e-09
Cn1cnc([N+](=O)[O-])c1[Se]c1nc(N)nc2c1ncn2[C@@H]1O[C@@H](CO)[C@H](O)[C@@H]1O | -2%[11.4 µM] | -0.7%[11.5 µM] | i | i | 1e-09
CC(=O)c1cccc(NC(=O)C2CCCCC2)c1 | 0% | 1.6% | . | . | .
CCC/C(O)=C1\C(=O)CC(C)(C)CC1=NCCO | -2% | 4.4% | . | . | .
c1csc(Cc2nn3c(-c4ccncc4)nnc3s2)c1 | . | . | i | i | 4e-09
O=C(Nc1ccc(Cl)cc1)c1ccsn1 | 0%[11.4 µM] | -0.7% | i | i | 3.8e-08

In the list so far, these contain a COOH group.
SMILES | TSHR agonist | AID923 | A488 autofl | Resorufin autofl | A647 fluor
CCOC(=O)N1CCN(c2cc(NCCC(=O)O)c3c4c(onc24)-c2ccccc2C3=O)CC1 | -18% | 6.4% | ? | i | 3.6e-08
CCNC(=O)CC(=O)Nc1ccccc1C(=O)O | -6% | -0.8% | i | i | 8e-09

(next part)
SMILES | TSHR agonist | AID923 | A488 autofl | Resorufin autofl | A647 fluor
Cn1c(=O)n(Cc2ccccc2)c(=O)c2c1nc1n2CCCN1Cc1ccccc1 | -40%[inhibitor] | 0.5% | i | i | 1.9e-08
Cn1c(-c2ccc(F)cc2)cnc1SCC(=O)NCc1ccco1 | 4% | -0.1% | i | i | 2e-09
COC(=O)c1ccc(C(=O)OC)c(NC(=O)COc2ccccc2OC)c1 | ? | 4.1% | i | i | 3.7e-08
CCn1c(NCCc2ccc(OC)c(OC)c2)nc2c1c(=O)n(C)c(=O)n2C | 11% | 0.9% | i | i | 6.7e-09
COc1ccccc1CNC(=O)CNC(=O)Cn1cnc2ccccc2c1=O | 5% | -1.1% | i | i | 3.8e-08
Cc1cccc(N2CC(=O)N(c3cccc(C)c3)CC2=O)c1 | . | . | i | i | 6.2e-08
CCc1nnc(NC(=O)CSc2nnc(COc3ccccc3C)o2)s1 | 0%[11.4 µM] | -0.6% | i | i | 3.6e-08
CCOc1ccc(S(=O)(=O)N2CCC(C(N)=O)CC2)c2ccccc12 | 2%[11.4 µM] | -0.3% | i | i | 3.1e-08
O=C(Nc1ccccc1C(=O)O)c1ccc(Cl)c(S(=O)(=O)N2CCOCC2)c1 | 5% | -0.1% | . | . | .
CCc1nnc(NC(=O)Cn2nnc(-c3ccccc3F)n2)s1 | . | 0.1% | i | i | 6.4e-09
O=S(=O)(c1cccs1)N1CCC(Cc2ccccc2)CC1 | . | -1.1% | i | i | 1.7e-09
CCCC(=O)Nc1ccc(C(=O)n2nnc3ccccc32)cc1 | 11% | 1.0% | i | i | 2.7e-08
CCOc1ccc(C2=Nn3c(nnc3-c3cccnc3)SC2)cc1 | . | . | i | i | 1.7e-08
CC(C)CN(C(=O)COC(=O)c1ccc2c(c1)NC(=O)CS2)C1CCS(=O)(=O)C1 (stereo not drawn) | 1% | -2.2% | i | i | 3.1e-09
Cc1cc(C)n(CCOC(=O)c2sc3ccccc3c2Cl)n1 | . | -0.6% | i | i | 1e-09
CC(=O)Nc1ccc2oc(-c3cc(F)c(F)cc3Cl)nc2c1 | 5% | 0.5% | i | i | 4.5e-08
CCOc1ccccc1N1CCN(Cc2ccc(OC)c(OC)c2)CC1 | 12%[11.4 µM] | 1.5% | . | . | .
CCOCC(=O)Nc1nnc(COCC)s1 | -20% | 0.0% | i | i | 1e-09
Cc1ccc(C)c(N2CCN(C(=O)CCc3nc4ccccc4[nH]3)CC2)c1 | 8% | -4.0% | . | . | .
C=CCc1ccccc1OCC(O)CN1CCN(C(=O)OCC)CC1 (stereo not drawn) | 3%[11.4 µM] | -1.1% | i | i | 1.9e-08
COC(=O)C1=C2SC(C)C(=O)N2C(N)=C(C#N)C1c1ccc(OC)c(OC)c1 (stereo not drawn) | 22% | 0.9% | i | i | 1e-09
CCOc1ccc(-c2nnn(CC(=O)N3CCN(c4ccc(F)cc4)CC3)n2)cc1OCC | 7% | -1.0% | i | i | 1e-09
Cc1cc(OCC(=O)O)c2ccccc2n1 | -1% | 0.4% | i | i | 1.3e-08
CCOC(=O)C[C@@H](CC(C)=O)C(=O)OCC | 28%[11.4 µM] | -3.7%[11.5 µM] | . | . | .
CCN=C1SC(C(=O)Nc2cccc(OCC)c2)CC(=O)N1CC (stereo not drawn) | -2% | -1.6% | i | i | 1.4e-08
Cc1cc(=O)[nH]c2n[nH]c(-c3ccccc3)c12 | -6% | 3.8% | i | i | 5.3e-08
COc1cc(C(=O)Nc2c(C)cc(C)cc2C)c(-n2cnnn2)cc1OC | 8% | 2.2% | i | i | 3.3e-08
COc1ccc2oc(=O)c(-c3nc(C)cs3)cc2c1 | . | . | i | i | 1e-09
CC(=O)c1ccc(Nc2cc(C)nc3nc(C)nn23)cc1 | 2% | 2.7% | . | . | .
CCOC(=O)N1CCN(S(=O)(=O)c2cc3c(cc2C)NC(=O)CO3)CC1 | 5% | -1.5% | i | i | 1e-08

Among those listed so far, 4 contain bromine.
SMILES | TSHR agonist | AID923 | A488 autofl | Resorufin autofl | A647 fluor
CCCNc1nc2c(c(=O)[nH]c(=O)n2C)n1Cc1cccc(Br)c1 | -13% | -3.7% | i | i | 2.6e-08
CCCCCn1c(Br)nc2c1c(=O)n(CC(N)=O)c(=O)n2C | 1% | -0.5% | i | i | 1.7e-08
COC(=O)c1cc(Br)c(=O)n(Cc2ccc3c(c2)OCO3)c1 | . | . | i | i | 2.7e-08
O=C(C1CC1)N1CCc2cc(Br)cc(S(=O)(=O)NCc3ccc4c(c3)OCO4)c21 | ? | 1.0% | i | i | 1e-09
